Assay outcomes deposited in PubChem BioAssay by National Center for Advancing Translational Sciences (NCATS).
Cruzain Triton: inhibitors of Trypanosoma cruzi cruzain with detergent; P25779; purified cruzain, Z-FR-AMC fluorescence, 0.01% Triton; Potency, µM, for the others: max response, negative = inhibition, hits mostly inhibitors; hit rate 0.43% among 200,000; AID 1478; active = well fitted curve in the direction sought with a large enough effect; inconclusive = small, poorly fitted or top-dose-only effect, or another doubt; inactive = no such curve, though single readings can be large; an effect the other way counts as inactive or inconclusive;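 note: plate controls were neutral wells for no effect and buffer without enzyme for full effect; nearly all actives have a fitted effect of over 40% in size; top concentration of the series not given in the record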
Target sequence (P25779 123-467 limits assumed): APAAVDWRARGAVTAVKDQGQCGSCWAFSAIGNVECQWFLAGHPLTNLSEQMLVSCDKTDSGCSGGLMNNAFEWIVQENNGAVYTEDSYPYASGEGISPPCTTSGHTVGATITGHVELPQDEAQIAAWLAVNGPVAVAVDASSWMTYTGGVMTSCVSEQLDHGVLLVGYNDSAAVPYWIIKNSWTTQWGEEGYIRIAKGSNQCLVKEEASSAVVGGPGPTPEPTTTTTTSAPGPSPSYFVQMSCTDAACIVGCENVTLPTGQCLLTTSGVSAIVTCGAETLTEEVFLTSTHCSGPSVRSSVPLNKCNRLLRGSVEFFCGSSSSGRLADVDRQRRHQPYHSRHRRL
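Detergent-containing run (0.01% Triton X-100) in acetate buffer pH 5.5 with 5 mM DTT: enzyme at 1.5 nM final, 15 min compound preincubation at room temperature, then 2 uM Z-FR-AMC substrate. Activity taken as 60 s fluorescence increase at 360/450 nm.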
2A StopGo: lowers the luciferase signal of an FMDV 2A StopGo reporter; human cells with a luciferase reporter of 2A StopGo recoding; control for the full effect not named in the record; Potency, µM (top dose mostly 57.9 µM), inactives show at the top dose signal change, negative = less light; hit rate 1.2% among 410,000; AID 1159524; active = well fitted falling curve with a large enough effect; inconclusive = small, poorly fitted or top-dose-only effect; inactive = no such curve, though single readings can be large or run the other way; tested in HEK293T cells; note: % is set by controls: 0 for no effect and ±100 for the full control effect; nearly all actives have a fitted effect of over 45% in size; luciferase light after 4 h
NS1 function inh: blocks influenza NS1 protein function; S. cerevisiae slowed by influenza A NS1, growth recovery by OD600; AID 2326; hit rate 0.4% among 270,000; Potency, µM (highest dose often 46.1 µM), inactives show at the highest dose activity, positive = more growth; note: actives are rising curves; nearly all actives have a fitted effect of over 50% in size
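Growth recovery, yeast-based: influenza A NS1 expressed in S. cerevisiae causes slow growth, and suppressors are detected by OD600. The parent strain without NS1 is used as positive control.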
RE007 growth inh: less growth of the S. pombe RE007 Vpr strain. S. pombe RE007 Vpr strain, BacTiter-Glo ATP luminescence, 24 h; control for the full effect not named in the record. Potency, µM (doses to about 92.2 µM), for inactives: at the highest dose activity change, negative = less growth. hit rate 0.21% among 360,000. AID 651644; active = well fitted falling curve with a large enough effect; inconclusive = small, poorly fitted or top-dose-only effect; inactive = no such curve, though single readings can be large or run the other way;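 note: % is set by controls: 0 for no effect and ±100 for the full control effect; nearly all actives have a fitted effect of over 50% in size; the assay follows cell death caused by Vpr and the record does not say whether a fall means rescue or toxicity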
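Fission yeast strain RE007, carrying one chromosomally integrated HIV-1 vpr copy, was seeded at OD 0.01 in PMG+AL medium with 23 nL pinned compound. After 24 h at 30 °C and 99% humidity, viability was read by BacTiter-Glo luminescence.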
LASV entry inh: blocks Lassa virus binding to or entry into cells; hit rate 1.2% among 300,000; Lassa virus pseudotype entry inhibition, cell reporter; control for the full effect not named in the record; Potency, µM (top dose mostly 37.9 µM), without a hit: top-dose activity change, negative = inhibition, actives largely listed as inhibitors; active means well fitted inhibition curve with a large enough effect; inconclusive means small, poorly fitted or top-dose-only effect, or effect the other way; inactive means flat fitted curve, though single readings scatter; tested in HEK293 cells; note: % is set by controls: 0 for no effect and ±100 for the full control effect; nearly all actives have a fitted effect of over 50% in size; luciferase read-out
Marburg entry inh: blocks Marburg virus binding to or entry into cells; Marburg virus pseudotyped entry inhibition, cell reporter; control for the full effect not named in the record; about a third of the inactives were read at about 46 µM; Potency, µM (series often up to 37.8 µM), inactives show top-dose activity change, negative = inhibition, usual class: inhibitors; hit rate 1.8% among 300,000; AID 540276; active = well fitted inhibition curve with a large enough effect; inconclusive = small, poorly fitted or top-dose-only effect, or effect the other way; inactive = flat fitted curve, though single readings scatter; tested in HEK293 cells; about a fifth of its hits are not listed in these tables; note: % is set by controls: 0 for no effect and ±100 for the full control effect; luciferase read-out
SARS PLP yeast: SARS-CoV PLP inhibition in yeast; hit rate 0.19% among 330,000; Potency, µM (top dose mostly 32.9 µM), for inactives: top-dose activity, positive = growth rescue; S. cerevisiae expressing SARS-CoV PLpro, growth rescue; control for the full effect not named in the record; note: 0% is about no effect; nearly all actives have a fitted effect of over 55% in size; growth read by luminescence after 48 h
Cruzain noTriton: blocks cruzain activity in detergent-free assay. purified cruzain, Z-FR-AMC fluorescence, no detergent. Potency, µM, for inactives: max response, negative = inhibition, usual class: inhibitors. hit rate 2.3% among 200,000. AID 1476; active = well fitted curve in the direction sought with a large enough effect; inconclusive = small, poorly fitted or top-dose-only effect, or another doubt; inactive = no such curve, though single readings can be large; an effect the other way counts as inactive or inconclusive;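 note: plate controls were enzyme without inhibitor for no effect and buffer without enzyme for full effect; nearly all actives have a fitted effect of over 40% in size; top concentration of the series not given in the record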
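Purified cruzain at 1.5 nM, pre-incubated 15 min with compound at room temperature in 100 mM sodium acetate pH 5.5, 5 mM DTT, 0.00005% Triton X-100. Reaction started with 2 uM Z-FR-AMC; AMC fluorescence increase over 60 s gives rate.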
An asterisk follows results filed as active; u = inconclusive; x = no result given; & = joins results of further samples; [ ] = another dose, or the depositor's remark. Unless noted, calls come from the whole dose curve; as a rule, active means well fitted rising curve with a large enough effect; inconclusive means small, poorly fitted or top-dose-only effect; inactive means no such curve, though single readings can be large or run the other way. Potency is the fitted concentration of half-maximal effect.

Results follow in this order: Cruzain Triton	2A StopGo	NS1 function inh	RE007 growth inh	LASV entry inh	Marburg entry inh	SARS PLP yeast	Cruzain noTriton
- CC(=O)N1CCN(c2ccc(NC(=O)c3ccc(Cl)c([N+](=O)[O-])c3)cc2)CC1
    x	-24%	-1%	16%	x	x	-1%	x
- O=C(Oc1ccccc1)c1cc2ccccc2oc1=O
    x	6%	x	-28%	u	18%[46.1 µM]	1%	x
- COc1ccc(N2C(=O)C3CCCN3C2c2cc(OC)c(OC)cc2OC)cc1 (stereo not given)
    2.4%	-14%	-10%	-15%	x	x	1%	-11%
- CCOC(=O)C1(CCOc2ccccc2)CCN(S(=O)(=O)N(C)C)CC1
    x	-13%	-23%	3%	0%[46.1 µM]	-18%[46.1 µM]	1%	x
- Cc1ccc(NC(=O)Nc2ccc3c(c2)N(C)C(=O)c2ccccc2S3)c(C)c1
    -3.8%	-19%	x	x	1%[46.1 µM]	11%[46.1 µM]	x	0%
- Cc1c(C(=O)N2CCC2)oc2ccc(Cl)cc12
    x	37%[activator]	x	-21%	10%	5%	-46%	x
- Cc1cc(C)n(-c2nc3c(c(=O)[nH]c(=O)n3C)n2CC(O)COc2ccccc2)n1 (stereo not given)
    2.5%	-18%	-1%	-12%	2%	-6%[46.1 µM]	0%	-7%
- CC(C)Cn1c(SCC(=O)Nc2cccc(S(N)(=O)=O)c2)nc2ccccc2c1=O
    x	-8%	x	24%	-4%	-1%	0%	x
- CCN1CCN(C(=O)C2CCN(S(=O)(=O)c3ccc(SC)cc3)CC2)CC1
    x	-25%	10%	0%	24%	5%[46.1 µM]	1%	x
- Cc1ccc(C)c(-n2c(SCC(=O)O)nc3sc4c(c3c2=O)CCCC4)c1
    x	-13%	u	-14%	-2%	3%[46.1 µM]	-4%	x
- O=C(CS(=O)c1ccccc1[N+](=O)[O-])Oc1ccc(Br)cc1 (stereo not given)
    x	-10%	-68%	u	1%[46.1 µM]	18%[46.1 µM]	-7%	x
- CCc1ccc2[nH]c(=O)c(C(c3nnnn3CC3CCCO3)N3CCN4CCCC4C3)cc2c1 (stereo not given)
    -0.3%	x	u	-7%	24%	-2%&-12%	-2%	-13%
- CC(C)c1nnc(NC(=O)CCC(=O)N2CCN(Cc3ccccc3)CC2)s1
    1.3%	-19%	-8%	0%	-2%	8%[46.1 µM]	-2%	5%
- O=C(CSc1nc(-c2ccccc2)c(-c2ccccc2)[nH]1)N1CCN(S(=O)(=O)c2ccccc2)CC1
    -5.0%	u	3.5µM*	-7%	-25%	u	9%	-8%
- O=CNCCCc1nc2ccccc2n1Cc1ccccc1
    1.2%	-6%	2%	12%	17%	-1%	1%	4%
- CCOC(=O)c1c(N)n(-c2ccc(CC)cc2)c2nc3ccccc3nc12
    -5.7%	0%	x	x	-6%[46.1 µM]	-25%[46.1 µM]	x	u
- O=C(NCc1ccc2c(c1)OCO2)c1ccc(S(=O)(=O)N2CCCCC2)cc1
    1.7%	-26%	0%	7%[3.69 µM]	-24%	-9%	2%	1%
- Cc1ccc(C(=O)C(OC(=O)CN2C(=O)c3ccccc3C2=O)c2ccccc2)cc1 (stereo not given)
    2.9%	0%	u	-2%[3.69 µM]	0%	u	6%	u
- O=C(CSc1nc(NS(=O)(=O)c2ccccc2)cc(=O)[nH]1)Nc1cccc(C(F)(F)F)c1
    x	-3%	19%	-4%	x	19%[46.1 µM]	5%	x
- CCC(=O)Nc1c(-c2ccc(OC)cc2)c(=O)c2ccccc2n1C
    -3.6%	-18%	0%	-22%	u	20%	12%	-8%
- COc1ccc(CNC(=O)Nc2cccc(Cl)c2)cc1
    x	u	1%	-11%	4%[46.1 µM]	5%[46.1 µM]	5%	x
- Cc1[nH]c2ccccc2c1SCC(=O)N1CCCc2ccccc21
    -6.5%	-19%	-33%	11%	x	x	-11%	6%
- N#Cc1cnc(Nc2nc3ccccc3o2)nc1-c1ccccc1
    2.6%	34%[activator]	-3%	-13%	u	u	0%	11%
- Cc1ccc(CCNC(=O)c2cc(Nc3ccc(C)c(C)c3)nc3ccccc23)cc1
    -5.3%	-19%	x	x	-4%[46.1 µM]	x	x	u
- COc1ccc(S(=O)(=O)Nc2cc(-c3cn4cccc(C)c4n3)ccc2C)cc1C
    -5.1%	27%	x	x	-22%[46.1 µM]	u	x	-2%
- CC1CCc2c(sc3nnn(Cc4ccccc4Cl)c(=O)c23)C1 (stereo not given)
    -1.5%	-10%	x	x	-1%[46.1 µM]	-2%[46.1 µM]	x	-9%
- Cc1ccccc1NC(=O)c1c(NC(=O)c2ccco2)sc2c1CCC(C(C)(C)C)C2 (stereo not given)
    -1.7%	-6%	x	x	-14%[46.1 µM]	12%[46.1 µM]	x	1%
- CCC(C)Nc1nc(N)c([N+](=O)[O-])c(N2CCCCCC2)n1 (stereo not given)
    x	u	-93%	1%	u	u	-1%	x
- COc1cccc(CN(C)C(=O)c2ccc3c(=O)n4c(nc3c2)CCC4)c1
    x	-2%	x	3%	13%	-10%	u	x
- CC(C)CCOC(=O)C1C2C=CC3(CN(Cc4cccs4)C(=O)C13)O2 (stereo not given)
    -21%	-11%	12%	2%	x	x	3%	-9%

Only NS1 function inh, Cruzain noTriton and Marburg entry inh (two entries from above):
SMILES | NS1 function inh | Cruzain noTriton | Marburg entry inh
COc1cccc(CN(C)C(=O)c2ccc3c(=O)n4c(nc3c2)CCC4)c1 | x | x | -10%
CC(C)CCOC(=O)C1C2C=CC3(CN(Cc4cccs4)C(=O)C13)O2 (stereo not given) | 12% | -9% | x

(more compounds)
compound,Cruzain Triton,2A StopGo,NS1 function inh,RE007 growth inh,LASV entry inh,Marburg entry inh,SARS PLP yeast,Cruzain noTriton
O=C(NC(Cc1ccccc1)C(=O)O)/C(=C\c1cccc([N+](=O)[O-])c1)NC(=O)c1ccco1 (stereo not given),x,-6%,19%,1%,1%,u,1%,x
COc1cccc(/C=C/C(=O)OCC(=O)c2ccc3c(c2)NC(=O)CO3)c1OC,x,u,1%,2%,-8%[46.1 µM],-16%[46.1 µM],-3%,x
CCN(CC)C(=O)c1oc2ccc(S(=O)(=O)N3CC(C)CC(C)C3)cc2c1C (stereo not given),x,-28%,7%,0%,u,u,-5%,x
O=P(O)(O)c1ccccc1OCc1ccccc1,1.9%,-16%,u,4%,6%,-3%,-11%,-3%
Cc1cc(C(=O)Nc2ccc(C(=O)O)cc2)c(C)o1,x,25%,-12%,-17%,9%[46.1 µM],7%[46.1 µM],0%,x
COc1cccc(NC(=O)CN2C(=O)c3cccc4cccc2c34)c1,-6.4%,-6%,x,x,31%[46.1 µM],u,x,15%
CC1(C)CC(=O)C(C=NCCN2CCN(C(=S)Nc3ccc(F)cc3)CC2)=C(O)C1,3.0%,-16%,-4%,7%,3%,10%,-4%,-2%
COc1ccc(S(=O)(=O)ON=C2CC(C)(C)N(C(C)=O)C(C)(C)C2)cc1,x,-12%,7%,0%,x,x,10%,x
N#Cc1cccc(NC(=O)CN2C(=O)NC(Cc3ccccc3)C2=O)c1 (stereo not given),x,-7%,4%,12%,x,x,1%,x
COc1ccccc1-c1nc(S(=O)(=O)c2ccc(Cl)cc2)c(N2CCCCCC2)o1,-14%,1%,x,x,-17%[46.1 µM],-4%[46.1 µM],x,-12%
Cc1ccc(NC(=O)CSc2nnc(CNC(=O)c3ccco3)n2C)cc1,x,-10%,x,12%,u,-3%,8%,x
Cc1ccc(-c2nnc(CSc3nnc4c5c(C)c(C)sc5nc(C(C)C)n34)o2)cc1,1.2%,x,8%,x,x,x,-1%,3%

3 compounds already listed, sorted by formula weight, high to low.
compound,Cruzain Triton,2A StopGo,NS1 function inh,RE007 growth inh,LASV entry inh,Marburg entry inh,SARS PLP yeast,Cruzain noTriton
CCN(CC)C(=O)c1oc2ccc(S(=O)(=O)N3CC(C)CC(C)C3)cc2c1C (stereo not given),x,-28%,7%,0%,u,u,-5%,x
COc1cccc(/C=C/C(=O)OCC(=O)c2ccc3c(c2)NC(=O)CO3)c1OC,x,u,1%,2%,-8%[46.1 µM],-16%[46.1 µM],-3%,x
Cc1cc(C(=O)Nc2ccc(C(=O)O)cc2)c(C)o1,x,25%,-12%,-17%,9%[46.1 µM],7%[46.1 µM],0%,x

The results go on.
compound,Cruzain Triton,2A StopGo,NS1 function inh,RE007 growth inh,LASV entry inh,Marburg entry inh,SARS PLP yeast,Cruzain noTriton
CCCSc1nnc2n(Cc3ccccc3)c(=O)c3c4c(sc3n12)CCC4,3.7%,x,8%,x,x,-6%,-1%,15%
CCN1CCCC1CNC(=O)c1c(O)c2c([nH]c1=O)CCCC2 (stereo not given),-1.2%,0%,-3%,0%,2%,-9%[46.1 µM],3%,-18%
CC(Cc1cccs1)NC(=O)Nc1ccc(Cl)cc1 (stereo not given),1.9%,23%,-84%,7%,-8%,11%,-15%,-4%
O=c1c([N+](=O)[O-])c(N2CCCC2)c2ccccc2n1-c1ccccc1,x,4%,9%,-11%,26%[46.1 µM],5%[46.1 µM],0%,x
Oc1ccccc1-c1nc(NCc2ccccc2)c2ccccc2n1,x,-16%,5%,-10%,-31%[46.1 µM],u,2%,x
O=C(CN1C(=O)c2ccccc2C1=O)NCc1ccc(C(=O)O)cc1,x,-9%,4%,-1%,6%,6%[46.1 µM],3%,x
Cc1sc(NC(=O)c2ccccc2)c(C(=O)NCCN(C)C)c1C,1.3%,20%,2%,8%,-25%,21µM*,-1%,-4%
